Bioassay records as filed in PubChem BioAssay.
VDR inh: blocks the human vitamin D receptor; AID 504847; VDR-SRC2-3 peptide fluorescence polarization, 2 h; Potency, µM, for the others: max response, negative = inhibition, usual class: inhibitors; P11473; hit rate 0.93% among 400,000; active = well fitted inhibition curve with a large enough effect; inconclusive = small, poorly fitted or top-dose-only effect, or another doubt; inactive = no such curve, though single readings can be large or run the other way; also: series mostly up to about 120 µM
Target sequence (P11473 whole entry, looked up): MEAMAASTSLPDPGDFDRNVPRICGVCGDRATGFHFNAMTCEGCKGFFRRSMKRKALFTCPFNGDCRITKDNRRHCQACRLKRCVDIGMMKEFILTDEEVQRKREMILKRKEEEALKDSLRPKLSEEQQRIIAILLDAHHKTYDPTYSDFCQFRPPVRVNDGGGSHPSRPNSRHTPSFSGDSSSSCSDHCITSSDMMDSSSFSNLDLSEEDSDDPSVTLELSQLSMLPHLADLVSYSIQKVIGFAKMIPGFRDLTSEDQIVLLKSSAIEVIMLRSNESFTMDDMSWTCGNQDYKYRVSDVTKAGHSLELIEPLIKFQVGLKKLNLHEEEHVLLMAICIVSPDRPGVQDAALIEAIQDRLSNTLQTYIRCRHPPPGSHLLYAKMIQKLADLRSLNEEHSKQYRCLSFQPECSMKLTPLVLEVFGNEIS
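FP read-out; VDR + SRC2-3 coactivator peptide; 23 nl compound by pintool; 2 h RT incubation; reagents held at 4 deg C, protected from light.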
Starred values were filed as active, the others as inactive; ? = inconclusive. % is scaled to controls: 0 for no effect and ±100 for the full control effect; potency is read from the fitted curve at half-maximal effect.

VDR inh | Compound
-5.2% | Cc1cccc(OC(C)C(=O)N2CCC(c3nc4ccccc4o3)CC2)c1C (stereo unspecified)
2.5% | CC(C)OCCCNC1=C(Cl)C(=O)c2ccccc2C1=O
9.7% | CCc1ccc(N2CC(C(=O)Nc3ccc(S(=O)(=O)Nc4ncccn4)cc3)CC2=O)cc1 (stereo unspecified)
-23.2% | CC(NS(=O)(=O)CCNC(=O)c1ccccc1)c1ccccc1 (stereo unspecified)
11.8% | CCOC(=O)c1cc(-c2ccccc2)n(-c2cccc(C(=O)Nc3cccc(C)c3)c2)c1C
-3.0% | CCN(C[C@H]1N[C@@](CC)(C(=O)OC)[C@H]2C(=O)N(Cc3ccccc3)C(=O)[C@@H]12)S(=O)(=O)c1ccc(C(C)(C)C)cc1
-2.6% | Cc1ccc(C2C(C#N)=C(N)Oc3n[nH]c(-c4cccnc4)c32)o1 (stereo unspecified)
10.7% | c1ccc(OCc2cc(-c3ccccc3)no2)cc1
-12.2% | COc1ccccc1N1CCN(S(=O)(=O)c2cn(C)cn2)CC1
6.3% | O=C1C(Cc2cccc([N+](=O)[O-])c2)SC(=Nc2ccccc2)N1c1ccccc1 (stereo unspecified)
-1.7% | CCCN1CCN(C(=S)NCc2ccc(Cl)cc2)CC1
-5.0% | O=C(NCc1ccccn1)C(F)(F)C(F)(F)C(=O)NCc1ccccn1

Next section
VDR inh | Compound
-1.0% | CCN(CC)C(=O)c1sc2c(c1C)c(=O)n(Cc1ccccc1)c(=O)n2Cc1ccc(Cl)cc1
-27.9% | Cc1cc(C(=O)NC2CCCc3c2cnn3-c2cccc(C)c2C)c(C)o1 (stereo unspecified)
-0.5% | CC(C)CCNC1c2ccccc2C(=O)N1Cc1ccccc1 (stereo unspecified)
5.0% | Cc1cc(S(=O)(=O)Nc2ccc3cn[nH]c3c2)c(C)cc1Cl
5.4% | Cc1cccc(C(=O)NCC(=O)OCC(=O)c2ccc(C)s2)c1
13.6% | CC1(CCC(=O)N2CCCC(N3CCN(c4ccc(F)cc4)CC3)C2)CC1 (stereo unspecified)
11.2% | O=C(Nc1cc(Cl)cc(Cl)c1)C(c1ccccc1)N1CCCCC1 (stereo unspecified)
-15.0% | S=C(Cc1ccccc1)N1CCOCC1
10.4% | COC(=O)c1c(NC(=O)C2CC(C)=C(C)CC2C(=O)O)sc2c1CCCCC2 (stereo unspecified)
-2.3% | CCOc1ccc(-c2nc(-c3ccncc3)no2)cc1OCC
? | Cc1cc(C(F)(F)F)nc(SCC(=O)Nc2nccs2)n1
-0.8% | O=C(NCc1cccnc1)c1ccc([N+](=O)[O-])cc1

(continued)
VDR inh | Compound
-28.4% | Cc1ccc2c(c1)C(c1ccccc1)C(=O)O2 (stereo unspecified)
-14.8% | CC(=O)NC1=NN(C(C)=O)C(C)(c2ccc(C)o2)S1 (stereo unspecified)
-6.5% | COc1ccccc1NC(=S)N1CCC(NC(=O)c2ccco2)CC1
1.6% | COc1ccc(CSCC(=O)N/N=C/c2ccc(OCC(=O)NCc3ccco3)cc2)cc1
-14.4% | O=C(CN1C(=O)COc2ccc(S(=O)(=O)N3CCCC3)cc21)Nc1cccc(F)c1
9.0% | CCc1ccc(N2CC(C)Cn3c2nc2c3c(=O)n(CCN3CCOCC3)c(=O)n2C)cc1 (stereo unspecified)
8.8% | CCC1(C)N=c2c(c(=O)n(C)c(=O)n2C)=NO1 (stereo unspecified)
-7.9% | N#Cc1c2c(c(Nc3ccc(F)cc3)n3c1nc1ccccc13)CCCC2
-13.7% | CN(NC(=O)c1ccccc1)c1ncc(C(F)(F)F)cc1Cl
-8.1% | CCN(CC(=O)Nc1c(F)cccc1F)C(=O)c1cc(S(=O)(=O)N(C)C)ccc1N1CCCC1
11.7% | COc1ccc(-c2[nH]ncc2CN(C)Cc2cccnc2)c(OC)c1
-5.7% | O=C(Oc1ccccc1)N1CCC2(CC1)CCN(c1ncccn1)CC2

Next part:
VDR inh | Compound
3.2% | CC(C)(C)C(=O)Nc1nnc(SCC(=O)Nc2nccs2)s1
-7.8% | COc1ccc(NC(=O)c2oc3ccccc3c2NC(=O)C2CCCCC2)c(OC)c1
1.2% | Cc1cc(NC(=O)c2ccc3c(c2)C(=O)N(c2cccc(C)c2C)C3=O)no1
5.6% | O=C(Cc1ccc(Cl)cc1)NNS(=O)(=O)c1ccc([N+](=O)[O-])cc1
? | COc1ccc(NC(=O)c2cnc(SC)n2-c2ccc(F)cc2)c(OC)c1
-11.7% | O=C(Cn1nc(C(F)F)cc1C(F)F)N/N=C/c1ccc2c(c1)OCO2
16.6% | CCN(CC)c1ccc(NC(=O)c2cccnc2)cc1
2.8% | Cc1cc(C)cc(N(C(=O)CNC(=O)c2cccs2)C(C(=O)NC2CCCC2)c2cccnc2)c1 (stereo unspecified)
-2.6% | CCOc1ccc(NC(=O)CC(c2ccccc2)c2ccc(F)cc2)cc1 (stereo unspecified)
12.4% | COc1ccc(S(=O)(=O)N2CCCCCC2)cc1C(=O)NCc1ccco1
10.7% | Cc1cc(F)ccc1S(=O)(=O)Nc1ccccc1C(=O)NCc1cccnc1
-25.4% | O=C(O)CC1S/C(=N/N=C/C=C/c2ccccc2[N+](=O)[O-])NC1=O (stereo unspecified)

Further results follow.
VDR inh | Compound
-13.1% | COc1cc(CN2CCC(C)CC2)ccc1OCc1ccccc1
-7.1% | Cc1ccc(OCC(O)CNC2CCCC2)c(C)c1 (stereo unspecified)
5.1% | O=C(Nc1nc2ccccc2s1)c1cccc(S(=O)(=O)N2CCc3ccccc32)c1
8.9% | CCOc1ccc(NS(=O)(=O)c2c(C)nc3sc(C)c(C)n3c2=O)cc1
-3.6% | Cc1nc(C)c(C(=O)C2=C(O)C(=O)N(CCN(C)C)C2c2ccccc2)s1 (stereo unspecified)
13.6% | COc1cc(N(C)C)c(NC(C)=O)cc1C(=O)O
-1.2% | COC(=O)[C@H](CO)N1C(=O)[C@@H]2[C@H](C1=O)C1C=C[C@H]2C1
-3.6% | COc1ccc(C(=O)Nc2nnc(S(=O)(=O)N3CCCc4ccccc43)s2)cc1
-23.7% | CCOC(=O)N(CC)OC(=O)Nc1ccc(Cl)cc1
5.3% | Cc1ccc(S(=O)(=O)c2nc(-c3cccs3)oc2N2CCC(C)CC2)cc1
-1.5% | O=c1c2oc3ccccc3c2ncn1Cc1ccc(Cl)cc1
9.3% | CCOc1cccc2cc(-c3nc4sc5c(c4c(=O)[nH]3)CCC(C)C5)c(=O)oc12 (stereo unspecified)

The results go on.
VDR inh | Compound
-0.1% | CCOC(=O)CSC1=Nc2ccccc2C2=NC(CCC(=O)NCc3ccc(OC)cc3)C(=O)N12 (stereo unspecified)
-18.3% | COc1ccc(S(=O)(=O)N[C@H](C(=O)O)C(C)C)cc1
-21.2% | COC(=O)[C@@H](CC(C)C)NS(=O)(=O)N(Cc1ccccc1)[C@@H](CC(C)C)C(=O)OC
3.9% | CCOc1ccc(-n2nc(CO)c(C(=O)NCc3ccc(Cl)cc3)n2)cc1
-9.7% | CCc1ccc(C(=O)CC2(O)C(=O)N(CCc3ccccc3)c3ccc(Br)cc32)cc1 (stereo unspecified)
-2.9% | COc1ccc(C(=O)NCC2OCCc3ccccc32)cc1 (stereo unspecified)
-9.5% | COc1ccc(Cl)cc1NC(=O)N1CCC2(CC1)Oc1ccccc1C(=O)N2Cc1ccc(F)cc1
0.7% | Cc1ccc(C)c(NC(=O)c2nc(Cl)ccc2Cl)c1
15.9% | CC(C)Cn1c(N)c(C(=O)NCCN2CCOCC2)c2nc3ccccc3nc21
2.8% | Cc1cc(C(=O)COc2ccccc2Cl)c(C)n1C1CC1
2.4% | CCSc1nnc(NC(=O)Nc2cccc(C)c2)s1
17.4% | CCN(CC)c1cc2c(cc1F)c(=O)c(S(=O)(=O)c1cccc(C)c1)cn2C

Following part
VDR inh | Compound
-3.4% | COCC(=O)N1CCC2(CCCN(c3ncccn3)C2)CC1
-10.1% | O=C(NCc1cccc(Cl)c1)c1ccc2c(c1)SC1=NS(=O)(=O)CCN12
-1.1% | O=c1oc2ccccc2n1Cc1ccccc1
-3.8% | O=C(O)c1ccc2c(c1)N(Cc1ccccc1)C(=O)c1ccccc1S2
9.7% | CC(C)(C)n1ncc2c(=O)n(CC(=O)Nc3ccc(Cl)cc3)cnc21
-0.7% | CCC(C(=O)OCC(=O)c1ccc(OC)cc1OC)c1ccccc1 (stereo unspecified)
-18.1% | CCC(=O)Nc1sc2c(c1C(=O)OC)CCN(Cc1ccccc1)C2
0.4% | CCOc1ccc(OCC)c(NC(=O)C2CCN(S(=O)(=O)c3ccc(Br)s3)CC2)c1
13.0% | Cc1cc(C(F)(F)F)nc(NCc2cccnc2)n1
-1.1% | CCN(CC)c1nc2c(c(=O)[nH]c(=O)n2C)n1Cc1ccccc1Cl
-3.2% | COCCn1c(C)cc(C(=O)COC(=O)c2n[nH]c3ccccc23)c1C
-7.4% | COC(=O)c1cc(NC(=O)c2ccccc2)c(=O)oc1/C=C/Nc1ccc(Oc2ccccc2)cc1

Reformatted with each value named: part of the list above
CCN(CC)c1nc2c(c(=O)[nH]c(=O)n2C)n1Cc1ccccc1Cl
  VDR inh = -1.1%

COCCn1c(C)cc(C(=O)COC(=O)c2n[nH]c3ccccc23)c1C
  VDR inh = -3.2%

Next part
VDR inh | Compound
-22.8% | COc1ccc(Cl)cc1N(C)C(=O)Cc1noc2ccc(C)cc12
? | COC(=O)/C=C1\SC(N2CCOCC2)=C(c2ccc(OC)cc2)C1=O
9.3% | O=C(O)c1ccn(Cn2cnc3ccccc32)n1
-11.9% | Cc1ccc2nc(SCC(=O)Nc3cc(C(C)(C)C)nn3-c3ccccc3)[nH]c2c1
9.5% | CC(=Nc1cccc(C)c1)c1sc2ccccc2c1O
1.3% | COc1ccccc1NC(=S)NCC1CCC(CNC(=S)Nc2ccccc2OC)CC1 (stereo unspecified)
-13.9% | CN1C[C@@H]2[C@@H]3C(=O)N(Cc4ccccc4)C(=O)[C@@H]3[C@](Cc3ccccc3)(C1=O)N2C(=O)c1ccc(Br)cc1
2.8% | C=CCNC(=S)N/N=C(\C)c1cccc(NC(C)=O)c1
-9.1% | CC(=O)OC(C(=O)NC1CCCCC1)c1cccc(C)c1 (stereo unspecified)
7.0% | CC(=O)c1cccc(NC(=S)NC(=O)CC(C)(C)C)c1
-19.7% | Cc1cc(N=Cc2c(O)n(-c3cccc(Cl)c3)c(=O)c3ccccc23)no1
2.7% | COc1ccc(NC(=O)CSc2ccccc2)c([N+](=O)[O-])c1

More entries:
VDR inh | Compound
-22.5% | CC1CCCCC1NC(=O)COC(=O)c1c2c(nc3ccccc13)/C(=C/c1ccco1)CC2 (stereo unspecified)
-7.6% | CC(C)Oc1ccc(CNC(=O)C(C)n2ccc3cc(S(=O)(=O)N4CCCCCC4)ccc32)cc1 (stereo unspecified)
-9.2% | CC(C)Oc1ccc(C(=O)OC(C)C(=O)NC2CCCCC2C)cc1 (stereo unspecified)
-16.9% | O=C1CC(c2ccco2)CC2=C1C=Nc1ccccc1N2 (stereo unspecified)
-5.0% | COc1ccc(C2=NO[C@@H]3C(=O)N(c4cccc(C)c4C)C(=O)[C@H]23)cc1OC
-6.0% | O=C(NCC(c1cccs1)N1CCOCC1)c1ccc(Cl)nc1 (stereo unspecified)
-4.1% | O=C(CCS(=O)(=O)c1ccc(Cl)cc1)OCC(=O)N1CCCCC1
-7.2% | COc1ccc(-n2nc(C(=O)NCC(=O)N3CCCC3)c3ccccc3c2=O)cc1Cl
-3.8% | CC1CN(C(=O)COC(=O)c2c(Cl)cccc2Cl)CC(C)O1 (stereo unspecified)
-23.8% | O=C(/C=C/c1cc2ccccc2o1)c1ccccc1O
-15.5% | CC(C)CCNC(=O)Cn1c2c(c(-c3ccccc3Cl)cc1=O)CCC2
-12.2% | COc1ccccc1NC(=O)CN1CCN(C(=O)C2CCCO2)CC1 (stereo unspecified)

Going on with the list.
VDR inh | Compound
-2.6% | Cc1cccc(C(=O)NCCc2nnc(SCC(=O)Nc3nc(C)cs3)n2C)c1
-0.3% | CC(=O)c1ccc(S(=O)(=O)NCCc2csc(-c3cccnc3)n2)cc1
-14.1% | O=C(NCCN1CCCC1)c1ccc(Cn2c(=S)[nH]c3ccc(Br)cc3c2=O)cc1
-4.5% | CN(CC(=O)Nc1cccc(F)c1)C(=O)c1ccc(-n2cncn2)c([N+](=O)[O-])c1
? | CCC1CCc2c(sc(NC(=O)c3cnccn3)c2C(N)=O)C1 (stereo unspecified)
-5.5% | COc1ccc(/C=N/n2cncn2)cc1Cn1nc(C)c([N+](=O)[O-])c1C
-22.0% | Cc1[nH]c2ccccc2c1N=Nc1ccccc1C(=O)O

Entries listed so far with two or more sulfur atoms, in the order listed:
VDR inh | Compound
? | Cc1cc(C(F)(F)F)nc(SCC(=O)Nc2nccs2)n1
3.2% | CC(C)(C)C(=O)Nc1nnc(SCC(=O)Nc2nccs2)s1
5.1% | O=C(Nc1nc2ccccc2s1)c1cccc(S(=O)(=O)N2CCc3ccccc32)c1
8.9% | CCOc1ccc(NS(=O)(=O)c2c(C)nc3sc(C)c(C)n3c2=O)cc1
-3.6% | COc1ccc(C(=O)Nc2nnc(S(=O)(=O)N3CCCc4ccccc43)s2)cc1
5.3% | Cc1ccc(S(=O)(=O)c2nc(-c3cccs3)oc2N2CCC(C)CC2)cc1
2.4% | CCSc1nnc(NC(=O)Nc2cccc(C)c2)s1
-10.1% | O=C(NCc1cccc(Cl)c1)c1ccc2c(c1)SC1=NS(=O)(=O)CCN12
0.4% | CCOc1ccc(OCC)c(NC(=O)C2CCN(S(=O)(=O)c3ccc(Br)s3)CC2)c1
1.3% | COc1ccccc1NC(=S)NCC1CCC(CNC(=S)Nc2ccccc2OC)CC1 (stereo unspecified)
-2.6% | Cc1cccc(C(=O)NCCc2nnc(SCC(=O)Nc3nc(C)cs3)n2C)c1
-0.3% | CC(=O)c1ccc(S(=O)(=O)NCCc2csc(-c3cccnc3)n2)cc1

These rows are one share of the data. The share of hits here may be higher or lower than overall.
